UUG fidelity: yeast start codon fidelity modulation; activity score, % at 18.7 µM; 0.13% of 350,000 active; S. cerevisiae UUG-firefly luciferase reporter, luminescence/redox ratio;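 active means replicate mean at a twofold rise or more, about +100% in these data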;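 further: firefly luciferase made from a UUG start codon reports start codon fidelity; reporter light over untreated wells divided by growth signal over untreated wells; some hits fall short of that in this replicate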
MT1-MMP act inh: MT1-MMP (human) activation inhibition; P50281; HT1080 RFP-PRO-GFP cells, GFP/RFP ratio fluorescence, overnight; percent of plate control window, DMSO zero; GFP/RFP ratio change, % at 20 µM; 0.061% of 360,000 active; AID 651647;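 active means GFP/RFP ratio change of at least 30% with cell ATP level not reduced by more than half and red fluorescence within 50% of control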; further: strong numbers were not always called active
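Assay system: HT1080 cells carrying an RFP-PRO-GFP reporter | Dosing: Single dose of 20 µM compound, 1% DMSO final | Incubation: Cells overnight before dosing, compound overnight, 37 °C, 5% CO2 | Evaluation: GFP/RFP fluorescence ratio | Control set: DMSO and RFP-L50D-GFP cell wells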
HIV Env fusion: blocks HIV Env-driven cell-cell fusion | HeLa-JRFL Env/CEM21 cell fusion, luciferase | 1.1% of 360,000 active | AID 651610 | inhibition, % at 12.3 µM;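 active means mean replicate inhibition score of at least 50 and every replicate individually at or above 50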;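 further: 0% = plate neutral controls and 100% = maraviroc near 300 nM; one replicate is shown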
CSC inhib: cancer stem cell inhibition | 1.1% of 300,000 active | inhibition, % at 7.5 µM | cancer stem cell-like cells viability, luminescence;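 active means mean at 75% or more and at least half the replicates too; tested in HMLE shEcad cells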;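 further: 0% = median of negative and 100% = median of positive control wells; the first replicate is given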
MT1-MMP act inh RFP: also measured in MT1-MMP act inh; calls as there; RFP signal change, %; measured here: RFP expression control read;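 0 = vehicle wells; hits needed this value within 50% of zero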
Active calls of the source: *; . = no result given; [ ] = dose if it differs, or a comment. Not all compounds are listed; count on the stated rates, not on these rows.

SMILES	UUG fidelity	MT1-MMP act inh	MT1-MMP act inh RFP	HIV Env fusion	CSC inhib
O=C(O)[C@@H]1[C@@H](CO)[C@@H]2Cn3c(ccc(-c4cccnc4)c3=O)[C@H]1N2C(=O)Nc1cc(F)ccc1F	.	.	.	9[16.7 µM]	.
CC(C)NC(=O)N1[C@@H]2Cn3c(ccc(-c4cccc(C(=O)N(C)C)c4)c3=O)[C@H]1[C@@H](C(=O)O)[C@@H]2CO	.	.	.	-12[16.7 µM]	.
COC(=O)[C@H]1[C@H](CO)[C@H]2Cn3c(cccc3=O)[C@@H]1N2CCc1ccccc1	.	.	.	-8[16.7 µM]	.
C[C@@H]1CNCCN1c1ccc(N2CC[C@H](O)C2)c(C#N)c1	.	.	.	-10	.
COC(=O)[C@@H]1[C@@H](CO)[C@@H]2Cn3c(cccc3=O)[C@H]1N2Cc1nccs1	.	.	.	-7[16.7 µM]	.
COC(=O)[C@H]1[C@H](CO)[C@H]2Cn3c(ccc(C4=CCCC4)c3=O)[C@@H]1N2C(=O)C1CCCCC1	.	.	.	-6[16.7 µM]	.
CC=Cc1ccc2n(c1=O)C[C@@H]1[C@@H](CO)[C@H](C(=O)O)[C@H]2N1S(=O)(=O)c1ccccc1F (mixture of isomers)	.	.	.	1[16.7 µM]	.
O=C(O)[C@H]1[C@H](CO)[C@H]2Cn3c(ccc(C4=CCCCC4)c3=O)[C@@H]1N2C(=O)Cc1ccccn1	.	.	.	-1[16.7 µM]	.
CCC(=O)N1[C@@H]2c3ccc(-c4ccc(F)cc4)c(=O)n3C[C@H]1[C@H](CO)[C@H]2C(=O)OC	.	.	.	8[16.7 µM]	.
CC=Cc1ccc2n(c1=O)C[C@H]1[C@H](CO)[C@@H](C(=O)O)[C@@H]2N1S(=O)(=O)c1ccccc1F (mixture of isomers)	.	.	.	8[16.7 µM]	.
O=C(O)[C@@H]1[C@@H](CO)[C@@H]2Cn3c(ccc(C4=CCCCC4)c3=O)[C@H]1N2CCc1ccccc1	.	.	.	-2[16.7 µM]	.
C[C@@H]1CNCCN1c1ccc(N2CC[C@@H](O)C2)c(C#N)c1	.	.	.	2	.
COc1ccc(/C=C/C=C2C(=O)NC(=S)NC2=O)cc1	.	-4	4	.	.
CC1=CC2OC3CC4OC(=O)C=CC=CC(=O)OCCC(C)C(O)C(=O)OCC2(CC1O)C4(C)C31CO1 (centres undefined)	.	-40	-34	.	.
O=C(c1ccco1)N1Cc2ccccc2-n2nncc2C1	.	-2	1	.	.
COc1ccc(NP2(=O)OCC(C)(N)CO2)cc1 (centres undefined)	.	-1	1	.	.
CC(C)(C)N1CC(C(=O)c2ccccc2)C1c1ccccc1 (centres undefined)	.	-4	-2	.	.
CC(=O)Nc1ccc(S(=O)(=O)N2Cc3ccccc3-n3nncc3C2)cc1	.	1	-15	.	.
CC12C=CC(=O)C=C1CCC1C2C(O)CC2(C)C1CCC2(C)O (centres undefined)	.	1	1	.	.
CC1(C)CCCN1CCC(C(N)=O)(c1ccccc1)c1ccccc1	.	1	-2	.	.

A draw from above in order of number of heavy atoms, falling:
SMILES	UUG fidelity	MT1-MMP act inh	MT1-MMP act inh RFP	HIV Env fusion	CSC inhib
CC(C)NC(=O)N1[C@@H]2Cn3c(ccc(-c4cccc(C(=O)N(C)C)c4)c3=O)[C@H]1[C@@H](C(=O)O)[C@@H]2CO	.	.	.	-12[16.7 µM]	.
CCC(=O)N1[C@@H]2c3ccc(-c4ccc(F)cc4)c(=O)n3C[C@H]1[C@H](CO)[C@H]2C(=O)OC	.	.	.	8[16.7 µM]	.
CC(=O)Nc1ccc(S(=O)(=O)N2Cc3ccccc3-n3nncc3C2)cc1	.	1	-15	.	.

(next part)
SMILES	UUG fidelity	MT1-MMP act inh	MT1-MMP act inh RFP	HIV Env fusion	CSC inhib
C[C@]12CCC3C(CC[C@H]4C[C@@H](O)CC[C@]34C)C1CCC2=O (some centres undefined)	.	9	2	.	-18
COc1ccc2[nH]c(C)c(CCNCc3cn(C)c4ccccc34)c2c1	.	-4	-3	.	14
C[C@H](CO)N1C[C@H](C)[C@@H](CN(C)C(=O)Oc2cccc3ccccc23)OCc2cnnn2CCCC1=O	11	.	.	4[16.7 µM]	.
Cc1ccc(-n2c(=S)[nH]c3ccc(C)cc3c2=O)cc1	-37	.	.	9	.
C[C@@H]1CN([C@@H](C)CO)C(=O)CCCn2cc(nn2)CO[C@@H]1CN(C)C(=O)Oc1ccc2ccccc2c1	4	.	.	-26[16.7 µM]	.
COC(=O)C[C@H]1CC[C@H]2NC[C@H](O)COC[C@@H]2O1	-4	.	.	-2[16.7 µM]	.
COC(=O)C[C@@H]1CC[C@@H]2NC[C@@H](O)COC[C@H]2O1	-7	.	.	-12[16.7 µM]	.
COc1ccc(OC(=O)N(C)C[C@H]2OCc3cnnn3CCCC(=O)N([C@@H](C)CO)C[C@@H]2C)cc1	3	.	.	-30	.
COc1ccc(NC(=O)CN(C)C(=O)CSC(c2ccccc2)c2ccccc2)cc1	4	6	-4	.	.
CC(=O)NCC1=C(c2cccc3ccccc23)C[C@@H]2CC[C@H]1N2Cc1ccco1	-17	-2	4	.	.
O=C(NCC1=C(c2cccc3ccccc23)C[C@@H]2CC[C@H]1N2Cc1ccco1)c1ccc([N+](=O)[O-])cc1	-16	0	0	.	.
CC(=O)OC1C=CC2[C@H]3Cc4ccc(O)c5c4[C@@]2(CCN3C)C1O5 (some centres undefined)	-2	-2	3	.	.
COC12CCC3(CC1C(C)(O)C(C)(C)C)[C@H]1Cc4ccc(O)c5c4[C@@]3(CCN1CC1CC1)C2O5 (some centres undefined)	13	-3	1	.	.
O=S1c2ccccc2-c2ccccc21	-10	4	0	.	.
CCOC(=O)c1cccc(C2=C(CNC(=O)c3cccnc3)[C@H]3CC[C@@H](C2)N3Cc2ccccc2)c1	-17	11	4	.	.
CN1CCc2cc3c(cc2C1)OCO3	7	-1	2	.	.
NC(N)=Nc1ccc2[nH]c3c(c2c1)C[C@@]1(O)[C@H]2Cc4ccc(O)c5c4[C@@]1(CCN2CC1CC1)C3O5 (some centres undefined)	2	-2	7	.	.
Cc1ccc2c(c1)NP(=S)(Oc1ccccc1)N2 (centres undefined)	-19	1	3	.	.
CCC(C)(O)C(=O)OC1C(=O)OC2CC3C(C)=CC(O)C(O)C3(C)C3C4(O)OCC23C1C(C)C4O (centres undefined)	16	-50	-43	.	.
CCOC(=O)C1(c2ccccc2)CCN(CCC(=O)Nc2ccc(C(=O)OC)cc2)CC1	6	1	-3	.	.
CS(=O)(=O)c1ccc(C2=C(CNC(=O)c3cccnc3)[C@H]3CC[C@@H](C2)N3Cc2ccco2)cc1	-13	-1	4	.	.
CC(C)(C)n1nnnc1C(CCc1ccccc1)N1CCC(n2c(=O)[nH]c3ccccc32)CC1 (centres undefined)	8	11	-18	.	.
O=C1CN=C(c2ccccc2)c2cc(Cl)ccc2N1	-7	0	4	.	.
CC(C)C(O)(C(=O)OCC1=CCN2CCC(O)C12)C(C)O (centres undefined)	-17	2	6	.	.
O=C1NC(=S)NC(=O)C1=Cc1ccc(OCc2ccccc2)cc1	-16	-5	2	.	.
COC(=O)C1=C(c2ccc(OCc3ccccc3)c(F)c2)C[C@@H]2CC[C@H]1N2C	-8	5	4	.	.
CC1C2Cc3ccc(O)cc3[C@]1(C)CCN2CCc1ccccc1 (some centres undefined)	-12	-4	3	.	.
CCOP(=O)(NC(C)C)Oc1ccc(SC)c(C)c1 (centres undefined)	-35	1	0	.	.
Oc1ccc2c3c1OC1c4oc5ccccc5c4C[C@@]4(O)[C@@H](C2)N(CC2CC2)CC[C@]314 (some centres undefined)	-17	-1	3	.	.
CCC(=O)O[C@H]1CC[C@H]2[C@@H]3CCC4=CC(=O)CC[C@]4(C)[C@H]3CC[C@]12C	-3	0	4	.	.
COc1cc2c(cc1OC)C13CCN4CC5CCOC6CC(=O)N2C1C6C5CC43 (centres undefined)	-6	-2	-1	.	.
CC1[C@H]2Cc3ccc(O)cc3[C@]1(C)CCN2CCc1ccccc1 (some centres undefined)	-3	-1	2	.	.
CC(C)=CCN1CC[C@@]2(C)c3cc(O)ccc3C[C@@H]1C2C (some centres undefined)	-10	-2	-1	.	.
CCCCOC(=O)c1ccccc1N	-14	0	5	.	.
CC1C(=O)OC2CCN3CC=C(COC(=O)C(C)(O)C1(C)O)C23 (centres undefined)	-11	5	9	.	.
Cc1c(CCC(=O)N2C[C@H]3C[C@@H](C2)c2cccc(=O)n2C3)c(=O)oc2c(C)c(O)ccc12	10	-2	2	.	.
CC[C@H](C)[C@@H]1NC(=O)CNC(=O)c2csc(n2)[C@H](C(C)(C)O)OC(=O)C(C)(C)[C@H](CCCC(C)(Cl)Cl)OC(=O)c2csc1n2	1	-37	-34	.	.
COCCCNP1(=O)OCC(C)([N+](=O)[O-])CO1 (centres undefined)	-3	4	3	.	.
Cn1cc(C(=O)OCC(=O)NC2CCCC2)c2ccccc21	-9	2	-2	.	.
CCOC(=O)C1(c2ccccc2)CCN(CC(O)c2ccc(NC(C)=O)cc2)CC1 (centres undefined)	-10	1	3	.	.
COc1ccc2c3c1O[C@H]1C(=O)CC[C@H]4[C@@H](C2)N(C)CC[C@]314	3	2	6	.	.
CC(C)C[C@@H]1COc2cc(N3CCN(C)CC3)ccc2S(=O)(=O)N1	.	3	4	-1	.
C=CCCC1(C2=CCCCC2)C(=O)NC(=O)NC1=O	.	0	2	-10	.
CC(C)(C)C(=O)C(Oc1ccc(Cl)cc1)n1cncn1 (centres undefined)	.	-5	-6	-26	.
O=C(CCN1CC2CCC(CC2)C1)c1cccs1	.	2	1	13	.
CC(=O)OCC12CC(OC(=O)CC(C)C)C(C)=CC1OC1C(O)C(OC(C)=O)C2(C)C12CO2 (centres undefined)	.	-42	-36	67*	.
COc1ccc2c(c1)C13CCN(C)C(C2)C1CCC1(C3)OCCO1 (centres undefined)	.	-2	3	14	.
CCOC(=O)[C@]12Cc3ccc4ccccc4c3[C@H]1N(Cc1ccccc1)C(=O)c1ccccc12	.	2	4	18	.
CC1([N+](=O)[O-])COP(=O)(Nc2ccc(Cl)cc2)OC1 (centres undefined)	.	11	2	-10	.
C=CCC1(Cc2ccsc2)C(=O)NC(=O)NC1=O	.	1	-2	7	.

Pulled by structure from above, four records:
SMILES	UUG fidelity	MT1-MMP act inh	MT1-MMP act inh RFP	HIV Env fusion	CSC inhib
O=C(CCN1CC2CCC(CC2)C1)c1cccs1	.	2	1	13	.
COc1ccc2c3c1O[C@H]1C(=O)CC[C@H]4[C@@H](C2)N(C)CC[C@]314	3	2	6	.	.
COc1ccc2c(c1)C13CCN(C)C(C2)C1CCC1(C3)OCCO1 (centres undefined)	.	-2	3	14	.
CC(C)(C)C(=O)C(Oc1ccc(Cl)cc1)n1cncn1 (centres undefined)	.	-5	-6	-26	.

Profiles from above:
`CC(C)C[C@@H]1COc2cc(N3CCN(C)CC3)ccc2S(=O)(=O)N1` reads UUG fidelity = .; MT1-MMP act inh = 3; MT1-MMP act inh RFP = 4; HIV Env fusion = -1; CSC inhib = .
`C=CCC1(Cc2ccsc2)C(=O)NC(=O)NC1=O` reads UUG fidelity = .; MT1-MMP act inh = 1; MT1-MMP act inh RFP = -2; HIV Env fusion = 7; CSC inhib = .

Going on with the list:
SMILES	UUG fidelity	MT1-MMP act inh	MT1-MMP act inh RFP	HIV Env fusion	CSC inhib
CC12CC(=O)C3C(CCC4CC=CCC43C)C1CCC2=O (centres undefined)	.	0	-6	28	.
CC12CCC(O)CC1CCC1C2CCC2(C)C(C(=O)CC(O)C(F)(F)F)CCC12 (centres undefined)	.	9	-2	1	.
O=[N+]([O-])c1nccn1CC(O)CN1CC1 (centres undefined)	.	-2	3	8	.
COC(=O)C[C@H]1CC[C@H]2NC[C@@H](O)COC[C@@H]2O1	.	3	10	9[16.7 µM]	.

Assay outcomes as filed in PubChem.
